High-throughput results deposited in PubChem BioAssay by Emory University Molecular Libraries Screening Center.
Measles inh: inhibitors of measles virus growth in cells, primary screen, measles RdRp inhibitor project, cell-based, single point, HTS; infected Vero cells, GFP fluorescence, 64 h; hits give low values; z-score (no concentration beside the values); 33,000 compounds, 0.1% hits;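 active = z-score under -3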;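 also: score is relative to mean and SD of the compound wells of a plate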
* = called active by the depositor. Not all compounds are listed; the hit share may differ from the screen's.

Measles inh	SMILES
0.09	COc1cccc(NC(=O)Cn2cnc3ccc(S(=O)(=O)N4CCC(C)CC4)cc3c2=O)c1
-0.19	Cc1cc(=O)[nH]c(SCc2nc3ccccc3n2C)n1
-0.31	O=C(Nc1ccccc1F)c1ccc([N+](=O)[O-])cc1Cl
2.19	COC(=O)COc1ccc(Br)cc1
-0.53	Cc1ccccc1Cn1cc(S(=O)(=O)CC(=O)Nc2nccs2)c2ccccc21
-0.07	O=C(Nc1cccc(C(F)(F)F)c1)c1ccc(Oc2ccc(C(F)(F)F)cc2[N+](=O)[O-])cc1
0.7	COc1ccc(CC(=O)NCc2n[nH]c(=S)n2-c2ccc(Br)cc2)cc1
-0.48	CCCCN1COc2ccc3c4c(oc3c2C1)C(=O)c1ccccc1C4=O
-0.54	Cn1c(=O)c2cc(C(=O)N3CCN(c4ccc(F)cc4)CC3)sc2c2ccccc21
-0.73	C=C(C)CSc1nc2c(c(=O)n(C)c(=O)n2C)n1Cc1cccc(C)c1
-0.5	CCCOC(=O)c1[nH]c2c(c1C)C(=O)CC(c1ccccc1)C2 (centres undefined)
-0.06	Cn1c(=O)c2c(nc(N3CCCCC3)n2Cc2ccc(Cl)cc2)n(C)c1=O
0.13	COc1ccc(C2NC(=O)NC(C)=C2C(=O)OCCOc2ccccc2)c(OC)c1 (centres undefined)
-0.37	Cc1sc2ncn(CC(=O)NCC(=O)N3CCCCCC3)c(=O)c2c1C
-0.23	Cc1ccc(NC(=O)CCc2nc(-c3ccccc3F)no2)c(Br)c1
0.02	Cc1cc(C)cc(NC(=O)c2cc3ccccc3o2)c1
0.06	c1ccc2c(c1)nc1n2CCN1
0.85	CCC(=O)N1CCc2cc(S(=O)(=O)NCc3ccco3)ccc21
-0.81	COC(=O)C1=C(C)NC2=C(C(=O)CCC2)C1c1cccc(O)c1 (centres undefined)
-0.04	Cc1nc2ccc(C(=O)NCCN(C)C)cc2nc1C
0.52	O=C1CC(NCc2ccc(F)cc2)C(=O)N1c1ccc(F)cc1 (centres undefined)
-0.68	Cc1cc(C)n2nc(SCCC(=O)NCc3cccs3)nc2n1
-0.71	CN(C)c1ccc(NC(=O)CSc2nc3ccccc3c(=O)n2Cc2cccs2)cc1
-0.14	COC(=O)c1cc(-c2cccs2)nc2ccccc12
1.23	COc1ccc(NC(=O)c2cc3c(n(-c4ccc(C)cc4)c2=O)CC(C)(C)CC3=O)c(OC)c1
-1.01	COc1ccc(OC)c(N2C(=O)C3C4CCC(C4)C3C2=O)c1 (centres undefined)
-0.54	CC(C)NC(=O)c1cnn2c(C(F)(F)F)cc(-c3ccccc3)nc12
0.75	C=CCn1c(=N)c(C(=O)NCCc2ccccc2)cc2c(=O)n3cccc(C)c3nc21
-1.45	COc1ccc(C(=O)Nc2ccc(S(=O)(=O)Nc3cc(C)nc(C)n3)cc2)cc1OC
1.38	CCOc1ccc(-c2nnc(SCC(=O)N3CCc4ccccc43)o2)cc1
0.91	CCOc1cc2c(cc1OCC)C1CN(C2)Cc2cc(OCC)c(OCC)cc21
-1.33	CC1=C(C(=O)OC2CCCCC2)C(c2ccc(F)cc2)C2=C(CC(c3ccccc3)CC2=O)N1 (centres undefined)

Quoted at random: 2 compounds from above
Measles inh	SMILES
1.38	CCOc1ccc(-c2nnc(SCC(=O)N3CCc4ccccc43)o2)cc1
0.85	CCC(=O)N1CCc2cc(S(=O)(=O)NCc3ccco3)ccc21

New compounds follow.
Measles inh	SMILES
-0.55	O=C(C1CCCN(S(=O)(=O)c2cccs2)C1)N1CCN(c2ccc(F)cc2)CC1 (centres undefined)
-0.88	O=C(Nc1c2c(nn1-c1ccc(Cl)cc1)CS(=O)(=O)C2)c1cccc(Cl)c1
-0.24	Cc1ccc(-c2coc3cc4oc(=O)c5ccccc5c4cc23)cc1
1.23	O=[N+]([O-])c1ccc(N2CCOCC2)cc1NCCCN1CCOCC1
-0.44	COc1cccc(C2C(N3C(=O)c4ccccc4C3=O)C(=O)N2c2ccc(Br)cc2)c1 (centres undefined)
0.53	Cc1cc(C)c([N+](=O)[O-])cc1NC(=O)c1cc2c(C)nn(-c3ccccc3)c2s1
-0.07	COc1cccc(CNCc2ccc(OC)c3ccccc23)c1OC
-0.17	COc1ccc(CCNc2cc(N3CCN(C(=O)c4cccc(F)c4)CC3)ccc2[N+](=O)[O-])cc1OC
-0.98	CCN(c1cccc(C)c1)S(=O)(=O)c1ccc2c(c1)CCN2C(=O)C1CCC1
-1.02	Cc1cc(C)c2oc(-c3ccc(NC(=O)c4ccc5c(c4)OCCO5)cc3)nc2c1
1.48	CCOc1ccc(NS(=O)(=O)c2cc(C(=O)O)ccc2F)cc1
1.91	CC(=O)Nc1ccc(S(=O)(=O)Nc2nc3c(s2)CCCC3)cc1
-2.18	Cc1cccc(-n2cnc3cc(C(=O)NC4CCCC4)ccc32)c1
-1.06	CCCCC(=O)Nc1c2c(nn1-c1ccc(C)cc1)CSC2
0.24	CCOc1ccc2c(c1)C(=O)C(=O)N2CCN(CC)CC
0.05	COc1ccc(-c2coc3cc4oc(=O)cc(-c5ccccc5)c4cc23)cc1F
-0.39	COc1cccc(C2C(N3C(=O)c4ccccc4C3=O)C(=O)N2c2ccc(C)cc2C)c1 (centres undefined)
0.5	CCOc1ccc(NC(=O)CC2C(=O)Nc3ccccc3N2C(=O)c2ccccc2)cc1 (centres undefined)
-1.99	CCNC(=O)N1c2ccccc2C(C)(c2ccccc2)CC1(C)C (centres undefined)
0.46	O=[N+]([O-])c1ccc2oc(-c3ccc(O)cc3)nc2c1
0.32	COC(=O)C1=C(C)Nc2ncnn2C1c1ccc(C(=O)O)cc1 (centres undefined)
-0.5	COc1ccc(S(=O)(=O)N2CCCc3ccccc32)cc1OC
-0.94	O=C(c1nn2c(c1Br)NC(c1ccccc1)CC2C(F)(F)F)N1CCCc2ccccc21 (centres undefined)
-1.49	COc1ccc(C2C(C(=O)N3CCN(C)CC3)c3cc(OC)c(OC)cc3C(=O)N2C)cc1 (centres undefined)
-0.08	Cc1nn(Cc2ccc(F)cc2)c(C)c1NC(=O)c1cc(-c2ccco2)on1
-0.24	C=COc1ccc(NC(=O)c2ccc(OC)cc2)cc1
-0.03	COc1ccc(Cn2c(-c3ccccc3)c(-c3ccccc3)c3c(=O)[nH]cnc32)cc1
0.55	CC(=O)Nc1n[nH]c(-c2ccccc2)n1
0.61	Cc1csc(NC(=O)c2ccccc2Cl)n1
-1.11	O=C(O)c1ccc(N2CCCC2)c([N+](=O)[O-])c1
0.36	Cc1nc(NC(C)CCc2ccccc2)c2sc3nc4c(cc3c2n1)COC(C)(C)C4 (centres undefined)
0.35	Cc1ccc2nc(-c3ccc(NC(=O)c4ccccc4F)cc3)sc2c1
0.55	Cc1ccnc(NC(=O)C(NC(=O)C2CCCCC2)C(C)C)c1 (centres undefined)
-0.03	CC(NS(=O)(=O)c1ccc(F)cc1)C1C2CC3CC(C2)CC1C3 (centres undefined)
1.06	CCN(CC)S(=O)(=O)c1ccc(C(=O)Nc2nc(-c3ccccc3)c(C(C)=O)s2)cc1
-0.37	CC1(C)Cc2ccccc2-c2nc(-c3ccccc3)n(CCO)c(=O)c21
-0.74	Cc1c(Cl)cccc1-c1ccc(C(=O)Nc2ccc(Br)cn2)o1
0.14	CC(=O)Nc1ccc(NC(=O)c2c(I)cnn2C)cc1
-0.28	CC(C)C1=NN(C(=O)c2cccnc2)C(O)(C(F)(F)F)C1 (centres undefined)
-0.15	Cc1c(NC(=O)c2ccc3c(c2)OCCO3)cccc1-c1nc2ncccc2o1
0.82	O=c1c2c(nc3c(-c4ccccc4)c[nH]n13)CCCC2
0.05	Cc1cc(Cl)ccc1OCC(=O)Nc1ccc(S(=O)(=O)N2CCc3ccccc32)cc1
0.34	CCSCCOC(=O)C1=C(C)NC2=C(C(=O)CC(c3ccccc3)C2)C1c1cc2c(cc1Br)OCO2 (centres undefined)
-0.56	Cc1nc(N2CCC(C)CC2)c2c(C)c(C(=O)Nc3cccc(C(F)(F)F)c3)sc2n1
1.76	COc1cc(Cl)c(C)cc1N1C(=O)CN(Cc2ccccc2)C1=S
-0.98	Cc1ccc2nc(-c3ccc(N4C(=O)CC(N5CCCCCC5)C4=O)cc3)sc2c1 (centres undefined)
-0.49	O=[N+]([O-])c1ccccc1N1CCN(c2ccc([N+](=O)[O-])c3cccnc23)CC1
-1.05	COC(=O)COc1ccc(C=Nc2ccc(S(=O)(=O)Nc3ccccn3)cc2)cc1
1.03	COCCNC(=O)c1cnn2c1NC(c1ccc(OC)c(OC)c1)CC2C(F)(F)F (centres undefined)
-1.28	O=S(=O)(Nc1cccc(O)c1)c1ccc2oc3ccc(S(=O)(=O)Nc4cccc(O)c4)cc3c2c1
0.82	CC(=O)N1c2ccccc2N=C(c2ccc(C)cc2)CC1c1ccccc1 (centres undefined)
-0.23	COc1cccc(N2C(=S)NC3c4cc(C)ccc4OC2(C)C3C(=O)N(C)C)c1 (centres undefined)
-1.36	CCC(NS(=O)(=O)c1ccc(Oc2ccc([N+](=O)[O-])cc2)cc1)C12CC3CC(CC(C3)C1)C2 (centres undefined)
0.32	CCOC(=O)c1c(NC(C)=O)sc(C(=O)Nc2ccc(C)c(Cl)c2)c1C
-0.71	O=C(O)c1ccc(N=Cc2c(O)ccc3oc4c(c23)CCCC4)cc1
0.41	COC(=O)C1C(=O)C2=C(CC1C)NC(C)=C(C(=O)OC1CCCC1)C2c1cc(OC)c(O)c(OC)c1 (centres undefined)

Next structures follow:
Measles inh	SMILES
0.12	CCCCNC(=O)CCn1c(=O)c2ccccc2n(Cc2ccc([N+](=O)[O-])cc2)c1=O
0.23	Cc1cccc(N2C(=O)CC(Sc3nccc(C)n3)C2=O)c1 (centres undefined)
-1.04	Cc1ccc(CCN2C(=O)c3ccccc3C2C(=O)NC2CCCC(C)C2C)cc1 (centres undefined)
0.31	Nc1cc(Br)c2c(c1)OCCO2
0.08	O=C(NCc1ccco1)c1ccc(Br)c(S(=O)(=O)N2CCCCC2)c1
0.09	COc1ccc(-n2c(=S)[nH]c3cc(C(=O)NCCc4ccccc4)ccc3c2=O)c(OC)c1
-0.7	COc1ccc(-c2ncnn2-c2sc3c(c2C#N)CCCCCC3)cc1
-0.56	COc1ccc(OC)c(NC(=O)c2cc(S(=O)(=O)NCc3ccc(C)cc3)ccc2F)c1
-0.52	CCOc1cccc(-c2cc(C(=O)Nc3ccccn3)c3ccccc3n2)c1
-0.54	c1cc(-c2nc3c4c5c(sc4ncn3n2)CCCCC5)ccn1
-0.07	O=C(O)c1ccc(CS(=O)(=O)Cc2ccccc2F)o1
-1.25	CCSCCOC(=O)C1=C(C)NC2=C(C(=O)CC(C)(C)C2)C1c1ccccc1F (centres undefined)
-0.51	COc1cc(C2C(C(C)=O)=C(C)Nc3ncnn32)ccc1OCc1ccccc1C (centres undefined)
0.11	CC(=O)N(C)c1ccc(NC(=O)c2cnn(C)c2)cc1
1.23	O=C(NC1CCCCCC1)C1CCN(S(=O)(=O)c2cnc[nH]2)CC1
0.2	COc1nc(N=C(N)N)nc2c(C)cccc12
-0.57	Cc1ccc2c(N)c(C#N)sc2n1
0.5	CC(c1ccccc1)C1Nc2ccccc2C(=O)N1CCc1ccccc1 (centres undefined)
0.77	Cc1c(C(=O)N2CCCCCC2)sc2ncn(CC(=O)N3CCCC(C)C3)c(=O)c12 (centres undefined)
-0.99	COc1cccc(C2C(N3C(=O)c4ccccc4C3=O)C(=O)N2c2ccccc2OC)c1 (centres undefined)
-0.58	O=C(NC1CCCCC1)c1n[nH]c(=O)c2ccccc12
0.4	O=C1C(=O)N(CCCCN2C(=O)C(=O)c3ccccc32)c2ccccc21
-0.24	CCN(CC)c1ccc(NC(=O)CCS(=O)(=O)c2cccc3nsnc23)c(C)c1
-0.8	COC(=O)Cc1nc(N2CCN(c3ccc([N+](=O)[O-])cc3)CC2)c2c(C)c(C)sc2n1
0.43	Oc1ccccc1C=Nc1ccccc1-c1nnc2n1CCCCC2
-0.8	Fc1ccc(CNc2ncnc3c2cnn3-c2ccc(Cl)cc2)cc1
1.09	O=S(=O)(c1ccc(-c2csc(Nc3cccc4ccccc34)n2)cc1)N1CCOCC1
1.37	Cc1noc(C)c1S(=O)(=O)Nc1ccccc1F
0.4	CCOc1ccc(S(=O)(=O)NCc2ccc(OC)cc2)c2cccnc12
0.29	Cc1cc(NS(=O)(=O)c2ccc(NC(=O)C(C)(C)C)cc2)no1
0.43	COc1cc(C)ccc1S(=O)(=O)NCc1ccco1
-0.1	CCc1ccc(OCC2c3cc(OC)c(OC)cc3CCN2C(=O)c2ccccc2[N+](=O)[O-])cc1 (centres undefined)
-0.38	COc1ccc(S(=O)(=O)Nc2ccccc2C(N)=O)cc1OC
-0.71	COc1cc(C2C3=C(CC(C)(C)CC3=O)Nc3nc(SCc4ccccc4Cl)[nH]c(=O)c32)cc(OC)c1OC (centres undefined)
-5.58*	CCN(Cc1ccccc1)S(=O)(=O)c1cc(Br)cc2c1N(C(C)=O)CC2

Gathered by group: those above with a thiophene ring, fused or not (15)
Measles inh	SMILES
-0.54	Cn1c(=O)c2cc(C(=O)N3CCN(c4ccc(F)cc4)CC3)sc2c2ccccc21
-0.37	Cc1sc2ncn(CC(=O)NCC(=O)N3CCCCCC3)c(=O)c2c1C
-0.68	Cc1cc(C)n2nc(SCCC(=O)NCc3cccs3)nc2n1
-0.71	CN(C)c1ccc(NC(=O)CSc2nc3ccccc3c(=O)n2Cc2cccs2)cc1
-0.14	COC(=O)c1cc(-c2cccs2)nc2ccccc12
-0.55	O=C(C1CCCN(S(=O)(=O)c2cccs2)C1)N1CCN(c2ccc(F)cc2)CC1 (centres undefined)
0.53	Cc1cc(C)c([N+](=O)[O-])cc1NC(=O)c1cc2c(C)nn(-c3ccccc3)c2s1
0.36	Cc1nc(NC(C)CCc2ccccc2)c2sc3nc4c(cc3c2n1)COC(C)(C)C4 (centres undefined)
-0.56	Cc1nc(N2CCC(C)CC2)c2c(C)c(C(=O)Nc3cccc(C(F)(F)F)c3)sc2n1
0.32	CCOC(=O)c1c(NC(C)=O)sc(C(=O)Nc2ccc(C)c(Cl)c2)c1C
-0.7	COc1ccc(-c2ncnn2-c2sc3c(c2C#N)CCCCCC3)cc1
-0.54	c1cc(-c2nc3c4c5c(sc4ncn3n2)CCCCC5)ccn1
-0.57	Cc1ccc2c(N)c(C#N)sc2n1
0.77	Cc1c(C(=O)N2CCCCCC2)sc2ncn(CC(=O)N3CCCC(C)C3)c(=O)c12 (centres undefined)
-0.8	COC(=O)Cc1nc(N2CCN(c3ccc([N+](=O)[O-])cc3)CC2)c2c(C)c(C)sc2n1
